Screens: PubChem, National Center for Advancing Translational Sciences (NCATS)
Cruzain inh noDet = cruzain (T. cruzi) inhibition without detergent; P25779; purified cruzain, Z-FR-AMC fluorescence, no detergent; Potency, µM, without a hit: max response, negative = inhibition, usual class: inhibitors; 200,000 tested, 2.3% active; active = well fitted curve in the direction sought with a large enough effect; inconclusive = small, poorly fitted or top-dose-only effect, or another doubt; inactive = no such curve, though single readings can be large; an effect the other way counts as inactive or inconclusive;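 note: plate controls were enzyme without inhibitor for no effect and buffer without enzyme for full effect; nearly all actives have a fitted effect of over 40% in size; top concentration of the series not given in the record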
Target sequence (P25779 123-467 limits assumed): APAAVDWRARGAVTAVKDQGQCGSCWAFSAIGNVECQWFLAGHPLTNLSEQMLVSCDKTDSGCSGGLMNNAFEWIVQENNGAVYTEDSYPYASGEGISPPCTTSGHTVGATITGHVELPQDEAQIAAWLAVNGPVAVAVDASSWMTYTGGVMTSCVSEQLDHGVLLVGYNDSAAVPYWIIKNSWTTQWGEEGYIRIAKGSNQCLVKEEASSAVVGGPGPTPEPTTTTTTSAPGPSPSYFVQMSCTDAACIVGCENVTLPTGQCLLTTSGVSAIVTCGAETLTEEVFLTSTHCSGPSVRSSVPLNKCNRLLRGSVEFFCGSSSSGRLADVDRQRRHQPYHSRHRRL
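Detergent-free condition (0.00005% Triton X-100) in acetate buffer pH 5.5 with DTT. 1.5 nM enzyme and compound were pre-mixed 15 min, then 2 uM Z-FR-AMC substrate added; reaction progress from fluorescence change between first and third reads (60 s).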
Lassa entry inh = Lassa virus entry inhibition | Lassa virus pseudotype entry inhibition, cell reporter; control for the full effect not named in the record | Potency, µM (doses to about 37.9 µM), inactives show at the highest dose activity change, negative = inhibition, usual class: inhibitors | 300,000 tested, 1.2% active | AID 540256; active means well fitted inhibition curve with a large enough effect; inconclusive means small, poorly fitted or top-dose-only effect, or effect the other way; inactive means flat fitted curve, though single readings scatter; tested in HEK293 cells; note: % is set by controls: 0 for no effect and ±100 for the full control effect; nearly all actives have a fitted effect of over 50% in size; luciferase read-out
SARS PLP yeast = SARS-CoV PLP inhibition in yeast; S. cerevisiae expressing SARS-CoV PLpro, growth rescue; control for the full effect not named in the record; Potency, µM (series often up to 32.9 µM), without a hit: top-dose activity, positive = growth rescue; 330,000 tested, 0.19% active; AID 485353; note: 0% is about no effect; nearly all actives have a fitted effect of over 55% in size; growth read by luminescence after 48 h
NS1 inh = blocks influenza NS1 protein function. S. cerevisiae slowed by influenza A NS1, growth recovery by OD600. Potency, µM (doses to about 46.1 µM), without a hit: top-dose activity, positive = more growth. 270,000 tested, 0.4% active; note: actives are rising curves; nearly all actives have a fitted effect of over 50% in size
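Compounds were scored for reversing the slow growth caused by influenza A NS1 in S. cerevisiae, measured by optical density at 600 nm. Assay medium contained 2% galactose at pH 6.0; NS1-free yeast of the same strain were the positive control.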
StopGo reporter = FMDV 2A StopGo reporter, luciferase signal | human cells with a luciferase reporter of 2A StopGo recoding; control for the full effect not named in the record | 410,000 tested, 1.2% active | Potency, µM (top dose mostly 57.9 µM), without a hit: at the top dose signal change, negative = less light; active = well fitted falling curve with a large enough effect; inconclusive = small, poorly fitted or top-dose-only effect; inactive = no such curve, though single readings can be large or run the other way; tested in HEK293T cells; note: % is set by controls: 0 for no effect and ±100 for the full control effect; nearly all actives have a fitted effect of over 45% in size; luciferase light after 4 h
RE007 growth inh = less growth of the S. pombe RE007 Vpr strain; Potency, µM (doses to about 92.2 µM), for inactives: at the highest dose activity change, negative = less growth; 360,000 tested, 0.21% active; S. pombe RE007 Vpr strain, BacTiter-Glo ATP luminescence, 24 h; control for the full effect not named in the record; active = well fitted falling curve with a large enough effect; inconclusive = small, poorly fitted or top-dose-only effect; inactive = no such curve, though single readings can be large or run the other way;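 note: % is set by controls: 0 for no effect and ±100 for the full control effect; nearly all actives have a fitted effect of over 50% in size; the assay follows cell death caused by Vpr and the record does not say whether a fall means rescue or toxicity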
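Fission yeast strain RE007, carrying one chromosomally integrated HIV-1 vpr copy, was seeded at OD 0.01 in PMG+AL medium with 23 nL pinned compound. After 24 h at 30 °C and 99% humidity, viability was read by BacTiter-Glo luminescence.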
MARV entry inh = blocks Marburg virus binding to or entry into cells. Marburg virus pseudotyped entry inhibition, cell reporter; control for the full effect not named in the record; about a third of the inactives were read at about 46 µM. Potency, µM (highest dose often 37.8 µM), inactives show at the highest dose activity change, negative = inhibition, most hits filed as inhibitors. 300,000 tested, 1.8% active. AID 540276; active = well fitted inhibition curve with a large enough effect; inconclusive = small, poorly fitted or top-dose-only effect, or effect the other way; inactive = flat fitted curve, though single readings scatter; tested in HEK293 cells; about a fifth of its hits are not listed in these tables; note: % is set by controls: 0 for no effect and ±100 for the full control effect; luciferase read-out
Cruzain Triton = inhibitors of Trypanosoma cruzi cruzain with detergent; P25779; Potency, µM, for the others: max response, negative = inhibition, hits mostly inhibitors; 200,000 tested, 0.43% active; purified cruzain, Z-FR-AMC fluorescence, 0.01% Triton; active = well fitted curve in the direction sought with a large enough effect; inconclusive = small, poorly fitted or top-dose-only effect, or another doubt; inactive = no such curve, though single readings can be large; an effect the other way counts as inactive or inconclusive;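 note: plate controls were neutral wells for no effect and buffer without enzyme for full effect; nearly all actives have a fitted effect of over 40% in size; top concentration of the series not given in the record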
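Cruzain (1.5 nM) preincubated 15 min at RT with compound in 100 mM sodium acetate pH 5.5, 5 mM DTT, 0.01% Triton X-100. Reaction started with 2 uM Z-FR-AMC; AMC fluorescence (ex 360/em 450 nm) change over 60 s gave rate.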
Starred values were filed as active, the others as inactive; ? = inconclusive; . = no result given; & = joins results of further samples; [ ] = dose if it differs, or a comment. Unless noted, calls come from the whole dose curve; as a rule, active means well fitted rising curve with a large enough effect; inconclusive means small, poorly fitted or top-dose-only effect; inactive means no such curve, though single readings can be large or run the other way. Potency is the fitted concentration of half-maximal effect.

SMILES	Cruzain inh noDet	Lassa entry inh	SARS PLP yeast	NS1 inh	StopGo reporter	RE007 growth inh	MARV entry inh	Cruzain Triton
CC1CCCC(C)N1C(=O)COC(=O)c1ccc(Br)c(S(=O)(=O)N2CCOCC2)c1 (stereo not given)	.	6%[46.1 µM]	-8%	.	-15%	5%	1%[46.1 µM]	.
O=C(Cc1ccccc1)c1ccc(N2CCOCC2)cc1	.	-19%	.	.	39%[activator]	-14%	?	.
COc1cccc(C(=O)Cn2c(=N)n(C)c3ccccc32)c1	5%	?	8%	-49%	-11%	-15%	?	0.1%
NCCCC[C@H](NC(=O)C1CCNCC1)c1nnc([C@@H](N)Cc2ccc(O)cc2)o1	.	.	0%	-1%	-5%	-1%	.	.
Cc1oc2ncnc(N3CCOCC3)c2c1C(=O)N(Cc1ccccc1)C(C)C	0%	3%[46.1 µM]	.	.	23%	.	.	0.8%
CCc1cccc(C)c1N(C(=O)Cn1c(COC)nc2ccccc21)C(C)COC (stereo not given)	?	?	2%	-6%	-7%	8%	-17%	3.5%
COC(=O)c1sc(NC(=O)c2cc3nc(-c4ccc(Br)cc4)cc(C(F)(F)F)n3n2)c(C(=O)OC)c1C	-10%	18%[46.1 µM]	.	.	-5%	.	.	0.8%
Cc1ccc2c(c1)c1nnc(SCC(=O)N3CCN(c4ccc(F)cc4)CC3)nc1n2CC(=O)O	7%	?	1%	22%	-1%	-19%	-1%	28µM*
CC(=O)Oc1ccc(C2=NN(c3ccccc3)C(c3ccccc3)C2)cc1 (stereo not given)	.	.	-2%	3%	-12%	-1%	.	.
O=C(CN1CC=C(c2ccccc2)CC1)Nc1c(Cl)cccc1Cl	-8%	-5%	-15%	3%	?	5%	?	-2.8%
Cc1ccc(-c2csc3nc4ccc(C(=O)NCCO)cc4c(=O)n23)cc1	.	.	3%	13%	-19%	-4%	.	.
CC(=O)Nc1cccc(NC(=O)CCn2c(=O)sc3ccccc32)c1	-1%	13%	0%	-2%	-21%	7%	6%	-4.5%
Cc1ccc(-c2nnc(COC(=O)c3cc(=O)[nH]c4ccccc34)o2)cc1	.	-10%	0%	12%	-2%	18%	11%	.
CCc1cc(C(=O)N(C)CC(=O)Nc2c(Cl)cccc2Cl)sc1C	.	8.9µM*	-4%	.	-19%	-13%	?	.
OC[C@@H]1[C@@H](c2ccccc2)C(c2ccccc2)=NN1c1ccccc1	28µM*	.	-60%	.	-28%	-5%	.	-0.3%
CCc1ccc(CCC(=O)Nc2nc(CC(C)=O)ns2)o1	?	0%	6%	9%	7%	16%	-2%	-0.9%
Cc1ccc(S(=O)(=O)N2CCC(C(=O)N3CCC(C(=O)NCC4CCCO4)CC3)CC2)cc1 (stereo not given)	6%	-2%	-1%	-1%	-13%	-10%	3%&23%	-6.5%
O=C(C1CCCN(CCCc2ccccc2)C1)N1CCCCCC1 (stereo not given)	7%	-1%	6%	0%	-13%	-21%	6%	-1.0%
CN(CC(=O)NNC(=O)CCNS(=O)(=O)c1ccccc1)S(=O)(=O)c1ccc(Cl)cc1	.	6%	2%	.	-15%	-5%	3%	.
COc1ccc(CNC(=O)C(C)Cc2ccccc2)cc1O (stereo not given)	1%&-3%	-8%	8%	-3%	2%	1%	?	-2.6%&-7.3%

Complete entries as entered above:
Cc1ccc2c(c1)c1nnc(SCC(=O)N3CCN(c4ccc(F)cc4)CC3)nc1n2CC(=O)O is listed as Cruzain inh noDet = 7%; Lassa entry inh = ?; SARS PLP yeast = 1%; NS1 inh = 22%; StopGo reporter = -1%; RE007 growth inh = -19%; MARV entry inh = -1%; Cruzain Triton = 28µM*
COC(=O)c1sc(NC(=O)c2cc3nc(-c4ccc(Br)cc4)cc(C(F)(F)F)n3n2)c(C(=O)OC)c1C is listed as Cruzain inh noDet = -10%; Lassa entry inh = 18%[46.1 µM]; SARS PLP yeast = .; NS1 inh = .; StopGo reporter = -5%; RE007 growth inh = .; MARV entry inh = .; Cruzain Triton = 0.8%

The list continues:
SMILES	Cruzain inh noDet	Lassa entry inh	SARS PLP yeast	NS1 inh	StopGo reporter	RE007 growth inh	MARV entry inh	Cruzain Triton
CCOCCCNC(=O)C(NC(=O)c1ccc(NC(C)=O)cc1)c1ccc(C)cc1 (stereo not given)	1%	4%	3%	-2%	11%	62%	?	-3.4%
NC(=O)c1ccc(NC(=O)COC(=O)C2CC3C=CC2C3)cc1 (stereo not given)	.	?	6%	.	2%	22%	?	.
CC1(C)C=Cc2c(c3c(c4c(=O)c(-c5ccc(O)cc5)coc24)OC(C)(C)CC3)O1	.	.	-6%	5%	?	-6%	.	.
COc1ccc(-c2c(C#N)c(SCC(=O)Nc3ccc(C)c(C)c3)nc(C)c2C(=O)Nc2ccc(Cl)cc2)cc1	6.3µM*	-6%[46.1 µM]	.	.	11%	.	.	0.7%
COc1ccc(/C(O)=C(\C#N)c2nc3ccccc3n2C)cc1OC	-1%	3%	-4%	-7%	-2%	-10%	21%	-6.6%
Cc1ccc(OCc2nn3c(-c4n[nH]c5c4CCC5)nnc3s2)cc1	-3%	.	-3%	8%	.	.	.	-1.1%
CCN(CC(=O)Nc1c(F)cccc1F)C(=O)c1ccc(S(=O)(=O)N2CCCCC2)cc1	.	-1%	2%	.	0%	-5%	-4%	.
CCOc1ccc(CNC2CCCCCCC2)cc1OC	.	.	3%	0%	-15%	-10%	.	.
O=C(NCCSc1c[nH]c2ccccc12)c1ccc(Br)o1	-8%	-23%	-19%	-90%	0%	0%	10%	-5.9%
CCc1ccc(C(=O)c2cn(CC(=O)NCCc3ccc(OC)c(OC)c3)c3nc(C)ccc3c2=O)cc1	?	3%[46.1 µM]	.	.	-7%	.	.	-3.5%
Cc1ccc(CCN2CC(C(=O)N3CCC4(CC3)OCCO4)CC2=O)cc1 (stereo not given)	4%	18%	-4%	10%	-1%	3%	0%	-1.7%
COC(=O)C(CC(=O)c1ccc(C)cc1)n1cccn1 (stereo not given)	.	.	0%	-13%	9%	-12%	.	.
O=C(CCc1ccc(S(=O)(=O)NCCc2ccccc2)cc1)N1CCN(Cc2ccc3c(c2)OCO3)CC1	8%	.	13%	-9%	.	.	.	-4.6%
COc1ccc(S(=O)(=O)Nc2ccc(-c3ccc4nncn4n3)cc2)c(OC)c1	.	-19%	3%	.	40%[activator]	-25%	?	.
Cc1ccc(/C=C/C(=O)O)cc1S(=O)(=O)N(CCO)CCO	0%	15%	23%	28%	-7%	-5%	7%	-4.4%
Cc1cc(NC(=O)c2ccccc2C)no1	.	0%	-10%	13%	49%[activator]	17%	7%	.
COC(=O)c1sc2ccccc2c1-n1cccc1C(=O)C(=O)Nc1ccccc1	?	?	-6%	-6%	-15%	2%	-25%	0.7%
O=C(NCc1ccc2c(c1)OCO2)c1ccc(CS(=O)Cc2cccc(Cl)c2)o1 (stereo not given)	.	-29%[46.1 µM]	10%	-4%	-11%	3%	-25%[46.1 µM]	.
O=C(c1cc2ccccc2oc1=O)N1CCN(c2ccccn2)CC1	-19%	28%	6%	0%	-4%	1%	2%	-3.8%
CC(=O)N1CCCc2cc(S(=O)(=O)N3CCC(C(=O)N(C)C4CCCCC4)CC3)ccc21	6%	?	.	.	-30%	.	.	-0.3%
Clc1ccc2c(c1)-c1[nH]ncc1CS2	.	16%[46.1 µM]	-1%	-2%	-14%	2%	2%[46.1 µM]	.
O=c1c(O)c(-c2ccccc2)oc2ccccc12	-12%	.	.	.	13%&34%	-17%	.	-9.3%
CN1CCN(C(=O)CCN2C(=O)/C(=C\c3ccccc3F)SC2=S)CC1	.	.	0%	-7%	-17%	-6%	.	.
CCCc1cc(=O)oc2c3c(cc(OCC(=O)N[C@@H](C)C(=O)O)c12)OC(C)(C)CC3	.	7%	-1%	2%	-8%	-12%	-8%	.
C=CCn1c(=S)[nH]c2nc3c(cc2c1=O)CCCC3	-13%	23%	-2%	-6%	.	-6%	20%&20%	1.5%
COc1ccc(C)cc1NS(=O)(=O)c1ccc2oc(=O)c3ncn(C)c3c2c1	-13%	-9%[46.1 µM]	.	.	?	.	.	-1.7%
C=C1C(=O)O[C@@H]2C[C@@H](C)[C@@H]3C=CC(=O)[C@@]3(C)[C@@H](OC(=O)CC(=O)O[C@H]3[C@@H]4C(=C)C(=O)O[C@@H]4C[C@@H](C)[C@@H]4C=CC(=O)[C@]43C)[C@H]12	.	.	-2%	5%	?	1%	.	.
Cc1ccc(-c2cc(Cc3ccccn3)c(=O)[nH]n2)cc1	.	12%	2%	0%	-6%	0%	20%[46.1 µM]	.
Cn1cccc1CNCc1ccc(F)cc1	-9%	?	5%	11%	0%	-3%	7%	-0.7%
O=C(/C=C/c1cccs1)N1CCN(c2ccc(F)cc2)CC1	.	-3%	-1%	-14%	10%	26%	-1%	.
O=C1CC(/C=C/c2ccccc2)=Nc2ccccc2N1	.	.	-1%	5%	60%[activator]	24%	.	.
O=C(COc1ccccc1-c1ccccc1)N/N=C/c1ccncc1	.	23%	-6%	-31%	?	16%	?	.

Rewritten in CSV form: entries from further up
structure,Cruzain inh noDet,Lassa entry inh,SARS PLP yeast,NS1 inh,StopGo reporter,RE007 growth inh,MARV entry inh,Cruzain Triton
CN1CCN(C(=O)CCN2C(=O)/C(=C\c3ccccc3F)SC2=S)CC1,.,.,0%,-7%,-17%,-6%,.,.
O=C(COc1ccccc1-c1ccccc1)N/N=C/c1ccncc1,.,23%,-6%,-31%,?,16%,?,.
O=c1c(O)c(-c2ccccc2)oc2ccccc12,-12%,.,.,.,13%&34%,-17%,.,-9.3%
C=CCn1c(=S)[nH]c2nc3c(cc2c1=O)CCCC3,-13%,23%,-2%,-6%,.,-6%,20%&20%,1.5%
